ClpP mod – qHTS Assay for Activators of ClpP; purified B. subtilis ClpP, FRET peptide cleavage, 20 min; Potency, µM (doses to about 57.5 µM), inactives show at the highest dose activity change, negative = active; 340,000 compounds, 1.9% hits; AID 651965, 2013; active = well fitted falling curve with a large enough effect; inconclusive = small, poorly fitted or top-dose-only effect; inactive = no such curve, though single readings can be large or run the other way; note: potency is the fitted concentration of half-maximal effect; the source files actives as falling curves though it sought activators and does not explain the sign; nearly all actives have a fitted effect of over 65% in size; many hits overshoot -100%
Target sequence (P80244 whole entry, looked up): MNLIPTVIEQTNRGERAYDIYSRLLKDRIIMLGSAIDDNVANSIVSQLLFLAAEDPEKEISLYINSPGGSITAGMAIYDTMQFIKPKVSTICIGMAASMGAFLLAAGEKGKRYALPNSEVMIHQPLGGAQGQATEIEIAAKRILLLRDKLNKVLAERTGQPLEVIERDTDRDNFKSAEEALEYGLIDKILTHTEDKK
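Buffer: 100 mM Tris/HCl pH8, 100 mM KCl, 0.05% low protease BSA, 2.5% glycerol, 0.01% Tween-20. ClpP 10 microg/mL final; 20 min RT; delta FRET normalized to ADEP and DMSO controls.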
Menin-MLL FL inh – displaces fluorescein MLL peptide from human menin. Fluorescence polarization, fluorescein-MLL peptide displacement from menin. FP activity change, % at 61.4 µM. 290,000 tested, under 10 active. AID 1766; inconclusive = falling polarisation curve, or a change in total fluorescence; inactive = total fluorescence flat and polarisation flat or rising; no compound was filed as active; the % refers to the polarisation; negative = inhibition;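 note: % of control where 0% means no effect; inhibitors lower the polarisation; unlabelled MLL peptide was the positive control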
TRPV1 PAM – enhances activation of the human vanilloid receptor TRPV1 | TRPV1-expressing cells, Fluo-8 calcium influx, capsaicin EC20 potentiation; host cell line not named in the record; control for the full effect not named in the record | potentiation, % at 8.33 µM | 320,000 compounds, 0.02% hits | AID 540277; active means potentiation above 80%; inconclusive means 30% to 80%; inactive means below 30%; note: 0% is about no effect
Target sequence (Q8NER1 whole entry, looked up): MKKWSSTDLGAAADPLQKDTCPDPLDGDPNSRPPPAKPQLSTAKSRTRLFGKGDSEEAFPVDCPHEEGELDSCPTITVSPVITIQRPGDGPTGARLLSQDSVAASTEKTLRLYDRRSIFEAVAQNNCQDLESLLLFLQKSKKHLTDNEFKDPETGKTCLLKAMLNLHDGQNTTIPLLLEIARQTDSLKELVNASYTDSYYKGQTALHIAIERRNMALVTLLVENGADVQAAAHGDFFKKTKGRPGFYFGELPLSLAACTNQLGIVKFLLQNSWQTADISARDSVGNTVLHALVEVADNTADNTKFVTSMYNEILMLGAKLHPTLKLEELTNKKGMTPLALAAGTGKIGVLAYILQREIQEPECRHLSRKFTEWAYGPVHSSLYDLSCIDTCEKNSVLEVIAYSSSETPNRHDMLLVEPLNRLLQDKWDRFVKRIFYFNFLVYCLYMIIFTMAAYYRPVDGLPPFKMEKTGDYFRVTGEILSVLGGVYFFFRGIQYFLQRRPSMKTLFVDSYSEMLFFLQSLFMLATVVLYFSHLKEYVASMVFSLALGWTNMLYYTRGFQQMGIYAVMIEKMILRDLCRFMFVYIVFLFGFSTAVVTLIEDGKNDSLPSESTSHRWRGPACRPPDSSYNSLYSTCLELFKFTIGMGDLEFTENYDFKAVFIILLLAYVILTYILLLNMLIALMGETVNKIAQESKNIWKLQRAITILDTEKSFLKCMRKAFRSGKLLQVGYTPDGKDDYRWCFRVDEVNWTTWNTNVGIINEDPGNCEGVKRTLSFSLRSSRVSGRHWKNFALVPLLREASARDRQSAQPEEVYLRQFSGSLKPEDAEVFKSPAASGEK
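TRPV1-expressing cells were cultured overnight at 35.5C and loaded with Fluo-8 calcium dye for 40 to 90 min at room temperature. After a 10 s baseline, compound was added and calcium influx was read kinetically for 3 min (ex 480/em 520 nm).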
Sfp PPTase inh – Sfp phosphopantetheinyl transferase inhibition; Potency, µM, inactives show max response, negative = inhibition, hits mostly inhibitors; 310,000 compounds, 3.5% hits; Biochemical Sfp PPTase activity, qHTS; Q9F4F7; active = well fitted inhibition curve with a large enough effect; inconclusive = small, poorly fitted or top-dose-only effect, or another doubt; inactive = no such curve, though single readings can be large or run the other way;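 note: the enzyme is Sfp with the accession as filed and its product quenches rhodamine fluorescence; potency is the fitted concentration of half-maximal effect; 0% = enzyme reaction without inhibitor and -100% = no enzyme wells; top concentration of the series not given in the record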
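Buffer: 50 mM Hepes-Na pH 7.6, 10 mM MgCl2, 0.01% Nonidet P-40, 0.01% BSA. Enzyme 15 nM, pre-exposed to compound 15 min; substrates then added and fluorescence change tracked over 30 min.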
TRPML1 blocker – blocks the human TRPML1 channel. Q9GZU1. TRPML1-inducible cells, Ca2+ dye fluorescence, FDSS; active compounds read low; inhibition of EC80 agonist-evoked calcium signal. activity change, negative = inhibition, % (no concentration beside the values). 390,000 compounds, 0.02% hits. AID 624415; in the data active means activity change below about -50%; inconclusive means about -30% to -50%; inactive means above about -30%;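 note: stimulus is agonist 54-4 at its EC80 concentration; % is set by controls: 0 for no effect and ±100 for the full control effect; compound concentration not given in the record; the text of the record puts the active cut at -80%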
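TRPML1-DL cells, Tet-induced overnight (~16 h, 37 °C) at 1,500 cells/well, were loaded with Ca8 no-wash dye plus quencher for 45-90 min at room temperature. Compounds were pinned during FDSS kinetic reading; agonist 54-4 at EC80 (4 uM final) then added.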
TRPML1 agonist – agonists of human TRPML1 channel | TRPML1-expressing cells, Ca2+ dye fluorescence, FDSS; host cell line not named in the record; reference of the full effect not given here | Q9GZU1 | activation, % (test concentration not listed) | 410,000 compounds, 0.12% hits; in the data active = activation above about 50%; inconclusive = about 30% to 50%; inactive = below about 30%; note: 0% is about no effect; the text of the record puts the active cut at 80%
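Agonist activity was taken from a 110 s kinetic Ca2+ dye read on the FDSS after pinning compounds onto TRPML1-DL cells. The cells were seeded at 1,500/well with Tet inducer, incubated about 16 h, then dye-loaded at room temperature.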
PINK1 expr mod – changes PINK1 expression; 410,000 compounds, 0.2% hits; Potency, µM (doses to about 76.6 µM), without a hit: at the highest dose activation (PINK1 increase), most hits filed as activators; PINK1 immunofluorescence, high-content cytometry, 24 h; active = well fitted activation curve with a large enough effect; inconclusive = small, poorly fitted or top-dose-only effect; inactive = flat fitted curve, though single readings scatter; cell line not stated here;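 note: potency is the fitted concentration of half-maximal effect; % of control where 0% means no effect; nearly all actives have a fitted effect of over 65% in size; a mitochondrial uncoupler was the plate control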
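Decision-based qHTS: stable cells, 24 h exposure to five compound concentrations, CCCP as control. Fixed cells stained for PINK1 plus nuclear, mitochondrial and cell markers, cytometer read.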
* hit, by the source's call; ? = inconclusive; nt = no result given; & = joins results of further samples; [ ] = remark or other dose.

SMILES | ClpP mod | Menin-MLL FL inh | TRPV1 PAM | Sfp PPTase inh | TRPML1 blocker | TRPML1 agonist | PINK1 expr mod
Cn1cccc1-c1cc2n(n1)CCC(=O)N2CC(=O)Nc1ccc(F)cc1Cl | 1.5% | nt | nt | nt | 23.7 | 0.6 | 1.7%
CN(c1ccccc1)S(=O)(=O)c1cccc(NC(=O)COC(=O)C2CCCCC2)c1 | -1.3% | -1.6 | -0.6 | 20.1% | nt | nt | 0.6%
CC(C)(C)OC(=O)N1CCC(c2c(C(=O)N3CCCCC3)cnn2-c2cccc(F)c2)CC1 | 0.6% | nt | nt | nt | 3.0 | -0.1 | -0.2%
Cc1cc(S(=O)(=O)NC2CCCC2)ccc1-n1cnnn1 | nt | -3.3 | -2.1 | 16.3% | -10.7 | -0.7 | -2.0%
Cc1c(C)c2c(OCC(=O)Nc3ccc(CCO)cc3)cc3c(c2oc1=O)CCC(C)(C)O3 | 4.3% | -5.0 | -22.7 | -7.5% | nt | nt | 1.1%
COc1ccccc1NC(=O)C1CCCN(S(=O)(=O)c2ccc(-n3cnnn3)cc2)C1 (centres undefined) | nt | nt | 26.2 | 8.8% | -4.4 | 0.1 | -1.3%
CCOC(=S)SCC(=O)Nc1nccs1 | -27.8% | -2.0 | -22.0 | 70.8µM* | 0.5 | -0.2 | 10.8%
CC1COC(=C2C(=O)OCC2C)C1 (centres undefined) | -0.2% | nt | nt | nt | -3.9 | -0.2 | 4.4%
CCOc1ccc(NC(=O)C2CCCN(c3cnccn3)C2)cc1 (centres undefined) | -5.3% | nt | 8.8 | 5.4% | -2.1&24.4 | 0.3&5.4 | -0.4%&0.4%
Cc1c(Cl)c([N+](=O)[O-])nn1CC(=O)N1CCCc2ccccc21 | -1.3% | 2.6 | 5.6 | 22.4% | -3.4 | -0.3 | -1.9%
O=c1ccnc(SCCc2ccc([N+](=O)[O-])cc2)[nH]1 | nt | nt | nt | nt | 0.6 | 0.7 | -1.1%
COc1cc(NC(=O)Cn2nc(C(F)(F)F)c3c2CCC3)cc(OC)c1OC | -2.7% | nt | nt | nt | 10.0 | 2.0 | 0.3%
CCOc1ccc(S(=O)(=O)N2CCCCC2)cc1NC(=O)c1c(CC)noc1C | 0.3% | nt | -10.1 | nt | -8.4 | 1.4 | 1.4%
COc1ccc(N(Cc2cccs2)C(=O)COc2cccc(Cl)c2)cc1 | 0.3% | nt | nt | nt | 8.5 | 1.7 | 0.3%
CCCCCNCC(=O)Nc1cc(C(F)(F)F)ccc1OCCOC | 1.0% | -8.2 | -13.6 | -8.0% | -9.9 | 0.9 | 0.1%
O=C(CN1CCOCC1)NNc1c2ccccc2nc2ccccc12 | nt | -1.0 | -5.1 | -1.4% | 6.9 | -0.3 | 0.5%
COCCn1c(SCc2nc3cc(OC)c(OC)cc3c(=O)[nH]2)nnc1-c1ccncc1 | -4.4% | 2.8 | 12.3 | 11.7% | 13.7 | -0.2 | -0.7%
COc1cc(C)ccc1OCCSc1nnc(-c2ccc(C)cc2)o1 | -9.1% | nt | nt | nt | -10.5 | 2.8 | -0.1%
CN(C)S(=O)(=O)c1cccc(C(=O)NC(=S)N(CCC#N)Cc2cccnc2)c1 | -2.7% | -4.0 | -16.4 | 44.7µM* | -0.3 | 0.0 | 0.3%
CNC(=O)c1sc(Nc2cc(C)ccc2C)nc1C | nt | -1.5 | 2.9 | 15.8% | 0.8 | 1.7 | -0.3%
COc1ccc(NC(=O)CSc2nnc(-c3ccco3)c(-c3ccco3)n2)cc1OC | nt | -1.9 | 26.5 | 35.5µM* | 25.4 | 1.0 | 2.2%
O=C(CCc1nnc2n(Cc3ccccc3)c(=O)c3ccccc3n12)NCCCN1CCCCC1 | -19.2% | 1.7 | 6.5 | 16.4% | 3.6 | -0.8 | 0.8%
O=C(NNc1nc2ccccc2s1)c1ccc(F)cc1 | 0.2% | 6.4 | 25.3 | -8.8% | 2.9 | -1.6 | 4.7%
Cc1cc(NC(=O)COC(=O)c2c(Cl)cccc2Cl)no1 | 1.7% | nt | -9.8 | nt | -4.3 | 0.9 | 3.5%
O=[N+]([O-])c1ccc(COc2cccc3cccnc23)cc1 | 1.9% | -2.9 | 2.1 | -3.1% | 25.0 | -1.2 | 3.0%
ONC(=Nc1ccc(Cl)cc1)c1ccccc1 | -1.6% | 5.2 | -11.1 | 18.6% | -17.4 | -0.1 | 0.1%
O=C(Cc1cccc2ccccc12)NO | 1.3% | nt | nt | nt | nt | -0.6 | 0.2%
CCn1cc(C(=O)NCc2ccco2)c(=O)c2cc(S(=O)(=O)N3CCCCCC3)ccc21 | 2.6% | 5.9 | -1.7 | ? | 4.7 | 0.9 | 2.5%
CC1=C(C(=O)N(C(C)C)C(C)C)CC(CC(=O)NC2CCCC2)C(=O)N1CCCN1CCCC1=O (centres undefined) | -2.1% | nt | nt | nt | -9.1 | 0.2 | 0.5%
COc1cccc(/C=N/NC(=O)c2cc3c(OC)cccc3[nH]2)c1OC | -24.9% | 5.2 | -15.8 | 1.8% | -22.4 | 0.5 | 9.7%
COc1ccccc1OCc1ccc(C(=O)Nc2ccc(C)c(C)c2)o1 | 1.0% | nt | nt | nt | 10.0 | 1.4 | 0.1%
c1cncc(-c2nccc(NCc3cccs3)n2)c1 | nt | 0.3 | nt | -17.6% | nt | nt | -0.6%
COc1cc(NC(=O)CN2Cc3ccccc3C2=O)cc(OC)c1OC | 0.2% | nt | nt | nt | -11.1 | -0.3 | 0.5%
CCOc1ccc(-c2csc(-c3nc(-c4ccc(Br)s4)cs3)n2)cc1 | 1.4% | nt | nt | nt | -12.4 | 0.8 | -0.9%
CCn1cc(/C=N\NC(=O)Cc2ccc([N+](=O)[O-])cc2)c(C)n1 | 0.8% | 2.1 | 2.1 | -0.9% | 44.2 | -0.1 | -1.0%
CCc1nc2ccc(C(=O)NCCCN3CCN(c4ccccc4F)CC3)cc2nc1CC | nt | -0.4 | 0.1 | 1.6% | 6.9 | 1.2 | -0.5%
COc1ccc(/C=C(\C#N)C(=O)N2CCOCC2)cc1Br | 25.1µM* | 4.6 | -26.5 | 5.8% | -2.1 | 1.3 | 4.1%
Cc1cc(C)nc(NC2=NCC(=O)N2c2ccc3c(c2)OCCO3)n1 | -0.6% | 3.6 | -1.4 | 10.8% | -3.0 | 0.1 | 1.9%[38.3 µM]
CCOC(=O)c1cccc(NC(=O)CCC(=O)N2CC(C)Oc3ccc(C)cc32)c1 (centres undefined) | 17.6% | nt | nt | nt | 3.9 | 3.8 | 1.7%
COc1ccc(-n2nnnc2C(c2cccc(OC)c2OC)N2CCN(C/C=C/c3ccccc3)CC2)cc1 (centres undefined) | -7.1% | nt | nt | nt | nt | -0.3 | -0.8%
COc1cccc(OCC(O)CN2CCN(c3ccc(Cl)cc3)CC2)c1 (centres undefined) | -0.5% | 1.7 | 5.8 | -10.2% | 26.9 | 0.6 | 2.2%
CCCCSCCCNC(=O)CN1C(=O)COc2ccc(S(=O)(=O)N3CCCC3)cc21 | 0.6% | nt | nt | nt | 9.4 | 0.4 | 2.9%
CCOC(=O)C1CCCN(Cc2ccc(OCc3ccccc3)cc2)C1 (centres undefined) | -4.5% | 3.9 | 5.2 | -9.1% | nt | nt | 25.3%
O=C(COc1ccccc1/C=C1\SC(=O)NC1=O)Nc1ccccc1 | -10.7% | 0.8 | ? | 3.1% | -10.7 | 0.0 | -0.6%
COCCn1c(SCC(=O)Nc2cc(C)on2)nc2c(c1=O)SCC2 | -2.2% | nt | -8.8 | 10.7% | 5.2 | -0.2 | -2.0%
CCOc1ccc(S(=O)(=O)N2CCN(C(=O)c3ccc(Cl)c(S(=O)(=O)N4CCOCC4)c3)CC2)cc1 | -7.0% | nt | nt | nt | -5.8 | -0.5 | 0.3%
COc1ccc2sc(N(Cc3cccnc3)C(=O)c3ccc4c(c3)OCCO4)nc2c1 | ? | nt | nt | nt | 0.1 | 0.0 | -1.0%
CCCCC1CCC(C(=O)N(CC(C)C)c2c(N)n(Cc3ccccc3)c(=O)[nH]c2=O)CC1 (centres undefined) | -4.2% | nt | 10.7 | nt | -7.0 | 1.5 | -2.8%
Cc1cc(NC(=O)CN(C)C)c([N+](=O)[O-])cc1C | 1.5% | 1.2 | -10.1 | -10.3% | 23.2 | 1.3 | 2.1%
O=[N+]([O-])c1cccc(C=NN=C2c3ccccc3-c3ccccc32)c1 | -2.5% | nt | nt | nt | 18.3 | 2.1 | 2.5%

(more compounds)
SMILES | ClpP mod | Menin-MLL FL inh | TRPV1 PAM | Sfp PPTase inh | TRPML1 blocker | TRPML1 agonist | PINK1 expr mod
CN(Cc1ccccc1F)Cc1cc(=O)oc2cc(O)c(Cl)cc12 | nt | 5.4 | -13.7 | 4.3% | 10.4 | 2.4 | 0.4%
Cc1ccc(C)c(NC(=O)CN(C)C(=O)c2cc(-c3cccs3)nn2-c2ccccc2)c1 | -0.7% | nt | 11.9 | ? | 9.8 | 2.3 | 3.8%
O=C(NCCc1csc(-c2cccc(F)c2)n1)c1ccco1 | -16.3%&-10.3% | nt | -20.7 | 2.8% | -3.0&-21.3 | 1.3&0.5 | 0.3%&-0.7%
Cc1ccc(C(=O)COC(=O)CNC(=O)c2ccco2)cc1 | 0.4% | 2.1 | -4.7 | 21.8% | -14.7 | 0.0 | nt
O=C(Nc1ccc(S(=O)(=O)N2CCCC2)cc1)c1cccs1 | nt | -1.1 | -10.5 | 12.8% | -2.2 | 0.5 | 0.5%
CC(NC(=O)CSc1nnnn1C1CC1)c1ccccc1Br (centres undefined) | 0.4% | nt | nt | nt | -12.9 | -0.8 | 2.7%
Cc1ccccc1SCCNC(=O)c1ccccc1Br | nt | 0.3 | -3.2 | 11.4% | 37.3 | 2.0 | 0.8%
S=c1[nH]nc(-c2ccco2)n1/N=C/c1ccc(Cl)c(Cl)c1 | -1.9% | -0.4 | -8.0 | -8.7% | 5.4 | 1.8 | ?
O=[N+]([O-])c1ccc(OCCCCN2CCc3ccccc3C2)cc1 | nt | -4.9 | -3.5 | -27.8% | 25.8 | -0.5 | 0.2%
O=C(O)c1ccc(CSc2nc3c(c(=O)[nH]2)CCC3)cc1 | 0.8% | nt | nt | nt | -12.1 | 0.8 | 4.9%
CN1CCN(S(=O)(=O)c2cccc(C(=O)N(Cc3nnc(-c4ccccc4Cl)o3)C3CC3)c2)CC1 | -8.6% | nt | -5.3 | 15.7% | 9.2 | 0.0 | 0.7%
